# Vaccinia mCherry – inhibitors of vaccinia virus infection (mCherry reporter signal); Vaccinia virus mCherry reporter infection, fluorescence; about a quarter of the inactives have no number; Potency, µM (highest dose often 36.5 µM), without a hit: top-dose activity change, negative = inhibition, most hits filed as inhibitors; hit rate 0.63% among 310,000; AID 720579; active = well fitted inhibition curve with a large enough effect; inconclusive = small, poorly fitted or top-dose-only effect; inactive = no such curve, though single readings can be large or run the other way; tested in A549 cells; also: nearly all actives have a fitted effect of over 35% in size; inactives centre near -10
# VACV Venus inh – inhibitors of vaccinia virus (Venus reporter); Vaccinia virus Venus reporter expression, fluorescence; Potency, µM (highest dose often 36.5 µM), inactives show at the top dose activity change, negative = inhibition, most hits filed as inhibitors; AID 720580; hit rate 0.46% among 330,000; active means well fitted inhibition curve with a large enough effect; inconclusive means small, poorly fitted or top-dose-only effect; inactive means no such curve, though single readings can be large or run the other way; tested in A549 cells; also: nearly all actives have a fitted effect of over 30% in size; inactives centre near -10
# Starred values were filed as active, the others as inactive; i = inactive; ? = inconclusive; . = no result given; & = joins results of further samples; [ ] = another dose, or the depositor's remark. % is scaled to controls: 0 for no effect and ±100 for the full control effect; potency is read from the fitted curve at half-maximal effect.
SMILES,VACV Venus inh,Vaccinia mCherry
O=C(CNC(=O)c1ccc(S(=O)(=O)N2CCCC2)cc1)N/N=C/c1ccc(Cl)cc1Cl,-28.0%,?
O=C(CN1CCN(S(=O)(=O)N2CCOCC2)CC1)Nc1cc(Cl)ccc1Cl,0.2%,10.4%
Cc1cc(N2CCN(C)CC2)ccc1NC(=O)c1ccc(-c2ccc(Cl)cc2)o1,-14.0%,?
COc1cccc(C(=O)Nc2ccc3[nH]ncc3c2)c1,-10.7%,i
NC(=S)Nc1cccc2cn[nH]c12,-6.1%,i
COC(=O)c1sccc1S(=O)(=O)N(CC(=O)Nc1cccc(C)c1C)c1ccc(C)c(C)c1,4.1%,-6.8%
CC(/C=C/c1ccccc1)=N\NC(=O)c1ccncc1,-6.2%,i
CC1CCN(c2ncnc3c2c(-c2ccccc2)cn3-c2ccc(Br)cc2)CC1,-2.9%,-15.0%
CCOc1ccc(NC(=O)c2ccc(NC(=O)c3ccccc3Br)cc2)cc1,-13.7%,?
Cc1cc(C)cc(Oc2ccc(-c3nnc(-c4ccccc4)o3)cc2[N+](=O)[O-])c1,15.3%,-5.0%
Cc1cc(C)cc(NC(=O)CN2C(=O)c3ccccc3Sc3ncccc32)c1,-11.8%,-10.1%
CCC(C)C1=CC(=Nc2c(C)n(C)n(-c3ccccc3)c2=O)C=C(C(C)CC)C1=O (configuration not stated),-10.6%,-15.8%
c1ccc(-c2csc3ncnc(NCCCN4CCOCC4)c23)cc1,?,.
COc1ccc(C(C(=O)NCC2CCCO2)N(C(=O)CNC(=O)c2cccs2)c2ccc(C(C)=O)cc2)cc1OC (configuration not stated),0.6%,i
Cc1ccccc1S(=O)(=O)NC(=O)C1(C)CCN1C(=O)Cc1cccs1 (configuration not stated),-7.9%,12.9%
Cc1[nH]c(=O)[nH]c(=O)c1CSCC(=O)OCC(=O)c1ccc(Br)cc1,3.1%,-8.5%
C=CCSc1nc2sc3c(c2c(=O)[nH]1)CC(C)(C)OC3,-11.4%,i
CNNC(=S)Nc1ccc(Cl)cc1,9.3%,-17.3%
OC1CCCN(Cc2ccccc2)C1 (configuration not stated),-3.7%,-8.8%
O=C(CNCCN1CCOCC1)Nc1ccccc1Sc1ccccc1,-15.5%,i
O=C(NCc1cccnc1)c1cc(C2CCCN(C(=O)c3ccccn3)C2)on1 (configuration not stated),1.1%,1.3%
Cc1onc(C(=O)N2CCC(C(N)=O)CC2)c1-c1ccccc1Cl,-7.7%,-18.2%
NC1=NN=C(N2N=C(c3ccco3)CC2(O)C(F)(F)F)n2ncnc2C1 (configuration not stated),-6.9%,-7.5%
CC1=C(C(=O)N2CCOCC2)CC(CC(=O)NCCc2ccccn2)C(=O)N1CCC1=CCCCC1 (configuration not stated),1.6%,16.4%
CSc1nc2ccccc2c(=O)n1N,-5.6%,-8.2%
Cc1cc(=O)oc2c(C)c(OCC(=O)NCCN3CCOCC3)ccc12,-17.4%,-12.4%
O=C(CCCOc1ccccc1)NC1CCCc2ccccc21 (configuration not stated),-4.5%,-8.5%
CCCC(=O)N1CCC1(C)C(=O)Nc1ccc2c(c1)CCN2C(C)=O (configuration not stated),-4.9%,1.9%
Cc1ccc(CNC(=O)c2ccc3c(=O)n(-c4ccccc4)c(=O)[nH]c3c2)cc1,9.5%,2.1%
Cc1cc(C(=O)Nc2cccc(-c3ccc(N4CCOCC4)nn3)c2)ccc1[N+](=O)[O-],-5.1%,?

# In the list so far, these contain an aryl thioether with sulfur outside any ring:
SMILES,VACV Venus inh,Vaccinia mCherry
C=CCSc1nc2sc3c(c2c(=O)[nH]1)CC(C)(C)OC3,-11.4%,i
O=C(CNCCN1CCOCC1)Nc1ccccc1Sc1ccccc1,-15.5%,i
CSc1nc2ccccc2c(=O)n1N,-5.6%,-8.2%

# (list continues)
SMILES,VACV Venus inh,Vaccinia mCherry
COc1cc(CNCCSc2nnnn2C)ccc1OCc1ccc(Cl)cc1Cl,-18.6%,-11.7%
Cc1ccc(S(=O)(=O)NCN2C(=O)c3ccccc3C2=O)cc1,-13.5%,i
CN(C)c1ccnc(Nc2ccc(O)cc2)c1C#N,-6.2%,-11.3%
CCN(CC)C(=O)C1CCCN(C(=O)c2ccc3nc(-c4cccc(OC)c4)oc3c2)C1 (configuration not stated),-7.2%,-3.1%
CC(=O)Nc1c(Cl)cc([N+](=O)[O-])c2ccccc12,1.7%,-1.7%
COc1ccc(NC(=O)CCc2nnc3ccc(N4CCC5(CC4)OCCO5)nn23)cc1,-5.6%,i
O=C(NCCc1ccccc1)c1ccc2c(c1)N(Cc1ccc(F)cc1)C(=O)c1ccccc1S2,-1.5%,-2.4%
Cc1cc(C)c(S(=O)(=O)c2ccccc2)c(OC(=O)c2c(F)cccc2Cl)n1,-20.9%,?
Cc1ccc(C)c(N2CCN(C(=O)CCC(=O)Nc3nnc(C(F)(F)F)s3)CC2)c1,-2.1%[7.34 µM],-9.0%[7.34 µM]
Cc1ccc(C(=O)N[C@H](C(=O)OCc2cc(=O)oc3cc(C)ccc23)C(C)C)cc1,6.4%,-6.2%
COc1ccccc1-c1nnc(SCC(=O)O)n1-c1ccccc1,-2.6%,0.3%
CCN(CCO)c1ccc(NC(=S)Nc2cccc(S(=O)(=O)N(C)C)c2)cc1,-8.3%,-8.5%
Cc1ccc(C(=O)NCCCn2ccnc2)o1,-14.9%,-13.0%
Cc1cccc(N2C(=O)CC(SC(=Nc3ccccc3)Nc3ccccc3)C2=O)c1 (configuration not stated),?,.
COc1ccc(C(=O)NCC(=O)N/N=C(\C)c2ccco2)cc1OC,-9.6%,-9.2%
O=C(CN1CCN(S(=O)(=O)c2ccc(F)cc2)CC1)NC1CCCC1,-9.2%,-14.2%
CCSc1nc2ccccc2c(=O)n1Cc1ccc(F)cc1,-4.1%,-5.3%
C#CCN1C(=O)S/C(=C\c2cc3c(cc2OC)OCO3)C1=O,-7.0%,i
Cc1cc(C)c(S(=O)(=O)NCC(c2ccco2)N2CCc3ccccc3C2)c(C)c1 (configuration not stated),-16.1%,-3.2%
CCN1CCN(c2cc3c(cc2F)c(=O)c(S(=O)(=O)c2cc(C)cc(C)c2)cn3CC)CC1,-19.3%,-8.5%

# Single records, from the list above. Values in the order: VACV Venus inh | Vaccinia mCherry
# Cc1cc(C)c(S(=O)(=O)NCC(c2ccco2)N2CCc3ccccc3C2)c(C)c1 (configuration not stated) is listed as -16.1% | -3.2%
# CCN(CCO)c1ccc(NC(=S)Nc2cccc(S(=O)(=O)N(C)C)c2)cc1 is listed as -8.3% | -8.5%

# The listing continues.
SMILES,VACV Venus inh,Vaccinia mCherry
O=C(/C=C/c1ccco1)N1CCC(Cc2ccccc2)CC1,-18.8%,i
Cc1cc(NC(=O)CCN2CCN(C)CC2)ccc1Br,-19.3%,i
COc1cccc(CNC(=O)c2nn(-c3ccc(C)cc3)c(=O)c3c2c2ccccc2n3C)c1,-12.2%,-14.7%
COc1ccc(Cl)cc1NC(=O)CCN1C(=O)C2CC=CCC2C1=O (configuration not stated),-13.3%,-21.5%
CCOc1ccc(-c2noc(-c3cccnc3)n2)cc1OC,-13.6%,-17.7%
C[C@@H]1CN([C@H](C)CO)C(=O)CCCn2cc(nn2)CO[C@H]1CN(C)C(=O)Nc1cccc(F)c1,3.9%,i
COc1cc(NCCC(=O)c2cccs2)c(OC)cc1Cl,-15.9%,-9.9%
O=C(C1CCN(S(=O)(=O)c2cnc[nH]2)CC1)N1CCc2ccccc2C1,-10.0%,-16.4%
COc1ccc(/C=N/NC(=O)c2cc(-c3cccnc3)nc3ccccc23)c(OC)c1,-0.6%,0.1%
CCC(C)N1CC(O)=C(c2nc3ccccc3[nH]2)C1=N (configuration not stated),-11.9%,-17.0%
O=C(COC(=O)CCC1CCCC1)Nc1ccc(Cl)cc1F,0.4%,-11.2%
CCOC(=O)C1CCN(C(=O)CN(c2cc(Cl)ccc2OC)S(=O)(=O)c2ccccc2)CC1,-11.3%,-12.2%
CCOc1ccc(C(=O)c2cn(CC(=O)Nc3ccc4c(c3)OCO4)c3ccc(OCC)cc3c2=O)cc1,?,?
CCCS(=O)(=O)NC(=O)C1(C)CCCN(C(=O)c2c(F)cccc2F)C1 (configuration not stated),1.9%,i
CCc1nc2c(OCc3ccc(C(=O)OC)cc3)cccn2c1N(C)C(=O)CC(C)C,-10.6%,2.1%
CCCNS(=O)(=O)c1cccc2cccnc12,-2.9%,21.1%
O=C(CN1CCN(Cc2ccccc2)CC1)NC(=O)NC1CCCCC1,-1.3%,i
Nc1ccc(Oc2cccc(Oc3ccc(N)cc3)c2)cc1,-2.7%,-21.2%
O=[N+]([O-])c1cc2c(c(CSc3nnc(Nc4ccccc4)s3)c1)OCOC2,-20.1%,.
Cc1cc(N(C)C(=O)c2ccc3c(c2)S(=O)(=O)c2cc(Cl)ccc2C3=O)c(C(F)(F)F)o1,-22.8%,?
COc1ccc(NC(=O)O/N=C/c2ccncc2)cc1,-12.3%,i
CC1CN(c2nc(N(C)c3ccccc3)nc(N)c2[N+](=O)[O-])CC(C)O1 (configuration not stated),-6.9%,?
COc1ccccc1C(=O)NCCCCNC(=O)c1ccccc1OC,-0.3%,-13.6%
Cc1ccc(CN2C(=O)CCC2(C)c2nnnn2-c2c(C)cccc2C)cc1 (configuration not stated),-5.8%,-4.5%
Cc1cccc(CNC(=O)c2ccc(NC(=O)C3=CSCCO3)cc2)c1,0.0%[7.34 µM],-12.2%[7.34 µM]
Cc1cccc(N2CCCn3c2nc2c3c(=O)n(CCN3CCOCC3)c(=O)n2C)c1,2.4%,-9.4%
CCn1c(N)c(C(=O)NCc2ccco2)sc1=S,-9.2%,.
Cc1ccccc1NC(=O)Cc1nc(COC(=O)c2ccc(Cl)c(S(N)(=O)=O)c2)cs1,-12.1%,-16.7%
Cc1ccc(S(=O)(=O)NC(=O)C2(C)CCN2C(=O)C2CC2)cc1 (configuration not stated),-1.1%,3.2%
Cc1cc(C2(O)C(=O)Nc3ccccc32)ccc1F (configuration not stated),-14.5%,i
CC1CCN(c2oc(-c3ccc(OCc4ccccc4Cl)cc3)nc2C#N)CC1,-14.1%,25.1%
CC(C)CCNC(=O)C(c1ccncc1)N(Cc1cccs1)C(=O)Cn1nnc(-c2ccc(F)cc2)n1 (configuration not stated),1.4%,3.7%
Cc1ccc(OCCCCn2cnc3ccccc32)cc1,-21.0%&-5.7%,-2.2%&-3.9%
O=C(c1cc(S(=O)(=O)N2CCOCC2)c(Cl)cc1Cl)N1CCCCC1CO (configuration not stated),-5.3%,i
Cc1ccc(-c2nc(NCc3cccnc3)c3ccccc3n2)cc1,-21.0%,-28.2%
CC(C)(C)[C@@H]1COC(=O)[C@H](Cc2ccc(F)cc2)C/C=C\C[C@@H](CC(=O)NCCO)C(=O)N1,-9.9%,-5.8%
CS(=O)(=O)N(CC(=O)Nc1ccccc1C(=O)N1CCOCC1)c1ccc2c(c1)OCO2,-5.2%,-16.7%
CN(C(=O)C(C)(C)C)C1c2c(ccc3ccccc23)OCC1CO (configuration not stated),-5.5%,-13.2%
COc1ccc(N2CCN(CC(=O)NCc3ccc(Cl)cc3)CC2)cc1,-20.8%,i
CC12C(=O)OC(=O)C1(C)C1CCC2O1 (configuration not stated),-89.0%[87.9 µM],-67.3%[87.9 µM]
N/C(Cc1ccc(Cl)cc1)=N\OC(=O)C1CCCCC1,-5.3%,-15.5%
CC(=O)Nc1ccc(S(=O)(=O)N2CCN(c3ccccc3)CC2)cc1,8.7%,1.4%
O=C(O)COc1ccc(/C=C2\SC(=Nc3ccccc3)N(c3ccccc3)C2=O)cc1,-2.3%,i
COc1ccc(NS(=O)(=O)N2CCCCC2)cc1,-3.4%,i
Cc1cc2cc(CNC(=O)NC3CCCCC3)ccc2n1C,-3.5%,-14.7%
O=[N+]([O-])c1ccc(OCC(O)CN2CCN(c3ccccc3F)CC2)cc1 (configuration not stated),-17.2%,-18.0%
CCOC(=O)CSc1nc2cc(C)cc(C)c2cc1C#N,8.5%,-14.0%
CCCCc1ccc(NC2=NCCCS2)cc1,-0.4%,?
Nc1nc(SCc2ccccc2)c2ncn(C3CCCCC3)c2n1,-7.9%,-4.8%
CC1CCCC(NC(=O)COC(=O)c2ccccc2[N+](=O)[O-])C1C (configuration not stated),-15.6%,-13.7%

# (further entries)
SMILES,VACV Venus inh,Vaccinia mCherry
CCOC(=O)N1CCN(C(=O)CN(C2CCCCC2)S(=O)(=O)c2ccc(C)cc2)CC1,-3.4%,.
Cc1nc(NC(=O)c2ccccc2)sc1C1(C)CC(c2ccccc2F)=NO1 (configuration not stated),0.7%,3.6%
CCCOc1ccc(/C=N/O)cc1,-11.4%,-17.3%
NS(=O)(=O)c1ccc(CCNC(=O)CCC2COc3ccccc3O2)cc1 (configuration not stated),-6.5%,.
C=CCN(CC=C)Cc1c(O)ccc2c(=O)c(-c3ccccc3)coc12,-10.6%,-6.7%
CCCNC(=O)CCc1c(C)nc2nc(CNC(=O)c3ccccc3)nn2c1C,8.2%,6.0%
O=C(CN1C(=O)NC(c2ccccc2)(c2ccccc2)C1=O)NCc1ccco1,-9.6%,-19.6%
CCC(C)c1ccccc1OCC(=O)NN1C(=O)c2ccccc2C1=O (configuration not stated),-17.9%,-0.5%
CN(CC(=O)Nc1ccccc1Br)C(=O)c1cc(S(=O)(=O)N(C)C)ccc1N1CCCC1,-13.4%,-14.4%
